Assay outcomes: PubChem, several laboratories
Env fusion inh = inhibitors of HIV-1 Env-driven cell-cell fusion, primary screen, HeLa-JRFL effector, CEM21 target cells, luciferase. AID 651610, 2012. hit rate 1.1% among 360,000. inhibition, % at 12.3 µM;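 active means mean replicate inhibition score of at least 50 and every replicate individually at or above 50; inconclusive means only one of the two criteria met; inactive means mean below 50 and not all replicates reaching 50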;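 further: 0% = plate neutral controls and 100% = maraviroc near 300 nM; one replicate is shown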
UUG fidelity = modulators of yeast start codon fidelity, primary screen, whole organism, S. cerevisiae, single point, plate reader; S. cerevisiae UUG-firefly luciferase reporter, luminescence/redox ratio; activity score, % at 18.7 µM; hit rate 0.13% among 350,000;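 active means replicate mean at a twofold rise or more, about +100% in these data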;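 further: firefly luciferase made from a UUG start codon reports start codon fidelity; reporter light over untreated wells divided by growth signal over untreated wells; some hits fall short of that in this replicate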
PABP polyA inh = PABP poly(A) RNA binding inhibitors, primary screen, biochemical, fluorescence polarization, uHTS; inhibition, % at 35 µM; hit rate 1% among 290,000; AID 2014, 2009;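 active means 50% or more with normal probe brightness, or confirmed in later tests; inconclusive means above 50% with abnormal brightness, or retests that disagree; inactive means below 50% or failed in later tests; about a fifth of its hits are not listed in these tables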;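 further: calls also rest on retests at 20 µM and on dose response follow-up; controls were probe without protein and protein plus probe with vehicle; some compounds called inactive have numbers as strong as hits; many hits fall short of the cut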
Target sequence (P11940 whole entry, looked up): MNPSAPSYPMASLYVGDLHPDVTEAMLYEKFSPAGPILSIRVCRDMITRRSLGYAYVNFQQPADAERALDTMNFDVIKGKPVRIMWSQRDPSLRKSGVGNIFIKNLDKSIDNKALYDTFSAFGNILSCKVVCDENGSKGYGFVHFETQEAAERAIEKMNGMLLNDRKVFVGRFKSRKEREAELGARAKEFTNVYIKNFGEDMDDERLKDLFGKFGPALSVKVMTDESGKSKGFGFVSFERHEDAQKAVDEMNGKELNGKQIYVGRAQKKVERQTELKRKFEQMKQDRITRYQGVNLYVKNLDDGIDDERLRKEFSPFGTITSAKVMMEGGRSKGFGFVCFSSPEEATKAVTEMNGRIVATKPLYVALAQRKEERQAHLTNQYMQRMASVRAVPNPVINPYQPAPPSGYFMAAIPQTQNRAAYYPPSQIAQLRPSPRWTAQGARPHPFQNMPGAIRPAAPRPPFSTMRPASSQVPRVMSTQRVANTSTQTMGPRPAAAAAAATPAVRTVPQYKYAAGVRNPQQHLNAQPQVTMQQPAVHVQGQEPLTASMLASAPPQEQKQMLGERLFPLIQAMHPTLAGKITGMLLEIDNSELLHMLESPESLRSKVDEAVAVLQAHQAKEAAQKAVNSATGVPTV
Rce1 inhib = yeast Rce1p protease inhibitors, primary screen, biochemical, fluorescence, cell-free homogeneous; yeast membranes, quenched prenylated peptide cleavage fluorescence; hit rate 0.27% among 290,000; calls only; CAAX prenyl protease 2 (Saccharomyces cerevisiae (strain ATCC 204508 / S288c)), Q03530; AID 2563, 2010;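 active means fall in fluorescence gain of 50% or more versus controls, with final raw signal at or below 3038400; inconclusive means same 50% fall but final raw signal above 3038400; inactive means fall in fluorescence gain under 50%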;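 further: plate controls were neutral control wells for no effect and wells lacking membranes for full effect; tested at 10 µM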
eIF4H FP inh = human eIF4H binding inhibitors, primary screen, translation initiation inhibitor project, biochemical, uHTS, fluorescence polarization | Eukaryotic translation initiation factor 4H (Homo sapiens), Q15056 | inhibition, % at 35 µM | eIF4H fluorescence polarization binding assay | hit rate 0.94% among 290,000;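 active means 50% or more with normal probe brightness, or confirmed in later tests; inconclusive means above 50% with abnormal brightness, or retests that disagree; inactive means below 50% or failed in later tests; about a fifth of its hits are not listed in these tables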;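 further: calls also rest on retests at 20 µM and on dose response follow-up; 0% = protein and probe with vehicle and 100% = probe without protein; strong numbers were not always called active; many hits fall short of the cut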
MT1-MMP act inh = blockers of MT1-MMP proenzyme processing, primary screen, HT1080 RFP-PRO-GFP cells, GFP/RFP fluorescence. hit rate 0.061% among 360,000. AID 651647, 2012. GFP/RFP ratio change, % at 20 µM. GFP/RFP ratio fluorescence, overnight; percent of plate control window, DMSO zero;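 active means GFP/RFP ratio change of at least 30% with cell ATP level not reduced by more than half and red fluorescence within 50% of control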; further: strong numbers were not always called active
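Material: RFP-PRO-GFP reporter HT1080 cells. Dosing: single-point 20 µM compound, 1% DMSO. Controls: DMSO and RFP-L50D-GFP cell wells. Timing: cells overnight before dosing, compound overnight, 37 °C, 5% CO2. Measure: GFP/RFP fluorescence ratio.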
CSC inhib = cancer stem cell viability inhibitors, primary screen, luminescence; cancer stem cell-like cells viability; hit rate 1.1% among 300,000; inhibition, % at 7.5 µM;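 active means mean at 75% or more and at least half the replicates too; inconclusive means mean and replicates disagree; tested in HMLE shEcad cells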;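 further: 0% = median of negative and 100% = median of positive control wells; the first replicate is given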
eIF4H FP inh retest = recorded beside eIF4H FP inh, whose call it bears; inhibition, %; compound at 20 µM; confirmation average;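 mean of two retest wells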
PABP polyA inh retest = also measured in PABP polyA inh; calls as there; inhibition, %; compound at 20 µM; confirmation repeats;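 mean of two retest wells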
MT1-MMP act inh RFP = also measured in MT1-MMP act inh; calls as there; RFP signal change, %; measured here: RFP expression control read;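 0 = vehicle wells; hits needed this value within 50% of zero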
* = called active by the depositor; i = inactive; u = inconclusive; x = no result given. The list is partial, so the mix of outcomes need not match the whole.

SMILES | Env fusion inh | UUG fidelity | PABP polyA inh | Rce1 inhib | eIF4H FP inh | MT1-MMP act inh | MT1-MMP act inh RFP | CSC inhib | others
CC(C)CNc1nc(NC(C)(C)C)nc(Oc2ccc(=O)[nH]n2)n1 | u | -17 | 1 | i | -7 | -6 | -4 | -15
CCOC(=O)C1CCCN(C(=O)c2cc(COc3ccc(C)nc3)on2)C1 (stereo not given) | -16 | 15 | -4 | i | 1 | 3 | -15 | -1
COc1ccc(-n2nc(C(=O)NCC(=O)N3CCC(C(N)=O)CC3)c3ccccc3c2=O)cc1 | -10 | -6 | 20 | x | 6 | -2 | -1 | -10
CCCC1=NN(C(=O)Cc2ccc([N+](=O)[O-])cc2)C(O)(C(F)(F)F)C1 (stereo not given) | 1 | x | -5 | i | -11 | 1 | -4 | -19
COc1cccc(NC(=O)CN2C(=O)CSc3ccc(S(=O)(=O)N4CCCCC4)cc32)c1 | 10 | 2 | x | i | x | 0 | -2 | 3
CC(C)Cc1oc(C(=O)O)cc1CN | x | -8 | 16 | i | 68 | 3 | 4 | -16 | eIF4H FP inh retest=0;PABP polyA inh retest=-2
COc1ccc(Nc2ccc(Cl)nn2)cc1 | 0 | -12 | -10 | i | 1 | -3 | -1 | -4
CCC(=O)Nc1cccc(SC)c1 | 7 | x | 63 | i | 3 | 2 | 2 | -12 | eIF4H FP inh retest=-12;PABP polyA inh retest=9
COc1ccccc1-c1cc(C(=O)N/N=C/C=C/c2ccccc2[N+](=O)[O-])c2ccccc2n1 | -68 | -12 | -2 | i | 0 | -4 | -2 | 20
CSc1ccccc1NC(=O)c1cc(-c2ccco2)on1 | -2 | -2 | 7 | i | -6 | -4 | 1 | 11
O=C(CSc1nncn1-c1ccccc1)Nc1cccc(S(=O)(=O)N2CCCCC2)c1 | 16 | x | 9 | i | 1 | x | x | -6
CC(C)(C)C1COc2ccccc2N1C(=O)c1ccccc1Cl (stereo not given) | 46 | -13 | 10 | i | 4 | -2 | -7 | 10
COc1ccc(CCNC(=O)c2cc(=O)c3cc(C)ccc3o2)cc1OC | 20 | -18 | 6 | i | -6 | 3 | -17 | -4
Cc1cccc(-c2nc(C)cc(=O)[nH]2)c1 | -15 | x | 0 | i | -4 | -2 | 1 | 5
COc1ccc(-c2nn(-c3ccccc3)cc2CO)cc1 | x | -6 | 3 | i | -1 | x | x | -5
O=C(O)c1cc([N+](=O)[O-])ccc1NCc1ccccn1 | 8 | 0 | x | x | x | 1 | 6 | 1
O=C(CCSc1ccccc1)NNC(=O)c1ccccc1F | -52 | x | x | x | x | 5 | 3 | 5
CN1CC(=O)N(CC(=O)N2CCC(Cc3ccccc3)CC2)C1=O | -16 | -1 | 0 | i | -2 | 1 | 0 | -3
CN(C(=O)COC(=O)C1CCN(S(=O)(=O)c2ccc(Cl)cc2)CC1)C1CCS(=O)(=O)C1 (stereo not given) | 51 | -16 | x | x | x | -2 | 3 | 37
COc1cc(/C=C(\C#N)c2nc3ccccc3[nH]2)ccc1O | -33 | -11 | 4 | i | 51 | -141 | 1 | 33 | eIF4H FP inh retest=-18;PABP polyA inh retest=49
Cc1cccc(C)c1NC(=O)COC(=O)C1CC(=O)N(Cc2ccccc2)C1 (stereo not given) | -15 | -9 | -8 | i | -5 | 3 | 2 | x
Cc1ccccc1OCC(O)CNC1CCCC1 (stereo not given) | -39 | -5 | 9 | i | 6 | 2 | 7 | -2
CCOC(=O)C1C(=O)NC(N2CCCCC2)=NC1C(C)C (stereo not given) | -103 | 8 | 0 | i | -15 | 1 | 1 | x
Cc1ccccc1NC(=O)C(C)O/N=C/c1cccc([N+](=O)[O-])c1 (stereo not given) | -39 | -8 | -3 | i | -6 | -5 | -3 | 13
Fc1ccc(NC(=S)N2CCN(c3ncccn3)CC2)cc1 | 17 | x | 32 | i | -4 | 0 | 0 | -1
CN1C(=O)N(CC(=O)Nc2ccc(C(F)(F)F)cc2)C(=O)C12CCCCC2 | -10 | -1 | x | x | x | 6 | 7 | x
COc1ccc(C2CC(c3c(O)cc(C)oc3=O)=NCCS2)c(OC)c1 (stereo not given) | x | -9 | 76* | i | 74* | -35 | 4 | 80*
O=c1c([N+](=O)[O-])c(N2CCCCC2)c2ccccc2n1-c1ccccc1 | x | -12 | 7 | x | 2 | -3 | 0 | -5
CCN1CCN(CCNC(=O)CS(=O)(=O)Cc2nc(-c3ccc(C)cc3)oc2C)CC1 | 2 | -23 | 14 | i | -5 | 0 | 2 | x
CCN(CC)C(=O)c1sc(NC(=O)c2ccc3c(c2)OCO3)c(C(N)=O)c1C | -43 | -12 | 1 | x | 2 | -2 | -5 | 11
COc1ccc(-c2csc(-n3ncc(-c4ccccn4)c3N)n2)cc1 | 1 | 16 | -8 | i | -5 | 0 | 6 | x
CC1CN(S(=O)(=O)c2cccc(C(=O)N(Cc3nnc(-c4ccccc4Cl)o3)C3CC3)c2)CC(C)O1 (stereo not given) | 3 | 4 | x | i | x | -3 | -5 | -14
CCOC1=C2CN(S(=O)(=O)c3ccc(C)cc3)[C@H](c3ccc(CC)cc3)C[C@@H]2N(S(=O)(=O)c2ccc(C)cc2)[C@H](c2ccccc2)C1 | 15 | -21 | x | x | x | 5 | -30 | x
CC(Cc1ccccc1)C(=O)NCc1nc2ccccc2s1 (stereo not given) | -17 | -4 | 9 | i | 10 | x | x | 5
Cc1ccnc(SCc2cc(=O)c(OC(=O)c3ccc(S(=O)(=O)N4CCCC4)cc3)co2)n1 | 0 | 0 | -1 | i | 2 | 3 | 6 | -4
O=S(=O)(c1ccc(SCc2ccc(Br)cc2)nc1)N1CCCCC1 | 8 | -15 | x | x | x | -4 | -1 | x
COc1cc([N+](=O)[O-])ccc1NC(=O)CCS(=O)(=O)c1ccc2c(c1)n(C)c(=O)c(=O)n2C | -4 | x | -1 | i | -6 | -4 | 2 | -4
O=S1(=O)CC(N2CCN(CCO)CC2)CN1C1CCCC1 (stereo not given) | 49 | -4 | x | x | x | -1 | 1 | x
CC(O)(C(=O)c1ccccc1)c1ccccc1 (stereo not given) | -1 | -20 | x | x | x | 1 | 4 | x
O=C(/C=C/c1cccs1)N1CCOCC1 | -9 | x | 8 | i | -2 | 3 | 8 | -15
Cc1cccc(OCC(=O)Nc2ccncc2)c1 | 5 | x | x | i | x | 5 | -10 | 4
COC(=O)c1c(NC(=O)Cc2cccs2)sc(C(=O)NC2CCCCC2)c1C | x | x | x | i | x | 2 | -8 | -4
O=C(CSc1nc2ccccc2[nH]1)N1c2ccccc2Sc2ccccc21 | x | x | 52 | i | 8 | -2 | -3 | -6 | eIF4H FP inh retest=-6;PABP polyA inh retest=1
O=C(C1CCN(S(=O)(=O)c2cccs2)CC1)N1CCCCC1 | -4 | -11 | -4 | i | 5 | 1 | -2 | -14
S=c1[nH]c(-c2ccccc2)cn1/N=C/c1cccc2ccccc12 | -26 | x | 2 | i | -6 | 2 | -3 | 59
Nc1ncnc2c1ncn2[C@@H]1O[C@H](CNS(=O)(=O)c2ccc(-c3ccno3)s2)[C@@H](O)[C@H]1O | 22 | -11 | x | x | x | 4 | 2 | x
O=C(c1ccccc1)N1CCN(CC#CC2(O)CCCCC2)CC1 | -12 | -8 | 4 | i | 2 | 6 | 4 | x
CCN(CC)CCNc1cc(C)nc2c1C(=O)C(=O)C=C2N1CCCCC1 | 3 | -14 | 50 | i | 46 | -19 | -14 | 54
O=C(c1cccs1)N1CCN(c2cc(Cl)ccc2Cl)CC1 | 18 | -16 | 0 | i | -8 | 1 | -2 | -7
Cc1ccc(C(=O)N2CCN(C(=O)c3ccccc3)C2c2ccc(N(C)C)cc2)cc1 (stereo not given) | 7 | -5 | 4 | i | 0 | 4 | 5 | -1
CCCCC(=O)N(C)c1c(CC)nc2c(OCCOc3ccc(F)cc3)cccn12 | -7 | -10 | x | x | x | -1 | -6 | x
COCCNC(=O)c1ccc(N2CC3CC(C2)c2cccc(=O)n2C3)c(NC(=O)c2ccc(Br)o2)c1 (stereo not given) | -12 | -12 | -2 | i | -6 | -1 | 2 | 7
C[C@H](NC(=O)c1nc[nH]c1C(=O)NCC(=O)OCc1ccccc1)C(=O)OCc1ccccc1 | -30 | -7 | 10 | i | -2 | 0 | 2 | -5
CCOC(=O)N/N=C/c1c(F)c(F)c(F)c(F)c1F | -13 | x | -2 | x | -2 | 2 | 2 | -11
Cc1cccc(NC(=O)c2ccccc2NC(=O)Cc2ccccc2)c1C | x | -17 | -5 | i | -8 | -8 | -1 | x
CC(=O)CCC1C2C(O)C(C(C)C)C(OC(=O)/C=C/c3ccccc3)CC12C (stereo not given) | x | 19 | 8 | i | -5 | -2 | -14 | -10
CC1(C)CC(OC(=O)c2ccco2)CC(C)(C)N1O | x | -10 | 30 | i | 11 | 0 | 4 | -23
Cc1ccc(C(=O)N(CCN2CCCCC2)CC2CCCN(C3CCCC3)C2)s1 (stereo not given) | -9 | 0 | 21 | i | 8 | 4 | 2 | x
CC(CCc1ccccc1)NC(=O)CCNS(=O)(=O)c1ccccc1C(F)(F)F (stereo not given) | 1 | 0 | x | x | x | 0 | -4 | x
CCOC(=O)CN1CC23C=CC(O2)C(C(=O)NCc2cccs2)C3C1=O (stereo not given) | -31 | -12 | -3 | i | 1 | 5 | 6 | 1
More compounds.
SMILES | Env fusion inh | UUG fidelity | PABP polyA inh | Rce1 inhib | eIF4H FP inh | MT1-MMP act inh | MT1-MMP act inh RFP | CSC inhib | others
O=C(Cc1cccc(Cl)c1)Nc1ccc(Br)cc1 | 4 | x | 0 | i | -14 | 3 | 2 | 15
CCn1c(=N)c(C(=O)NC)cc2c(=O)n3cccc(C)c3nc21 | x | -9 | 44 | u | -2 | 0 | -2 | x
CCOc1cc(/C=N/NC(=O)c2ccncc2)cc(Br)c1O | -7 | -12 | x | x | x | 5 | 6 | x
CCn1c2ccccc2c2cc(NC(=O)CSc3nnc(-c4ccc(OC)c(OC)c4)n3N)ccc21 | -26 | 4 | -10 | i | -4 | -1 | -1 | -12
C#CCOCCOCCOCCNc1nc(N2CCN(C(=O)[C@H]([C@@H](C)O)n3cc(CCCCN)nn3)CC2)nc(N2CCN(C(=O)[C@H]([C@@H](C)CC)n3cc(CCCN=C(N)N)nn3)CC2)n1 | 2 | -17 | -6 | i | 1 | 0 | 1 | 1
CC1(C)C(=O)OC(c2cccs2)C(C)(C)C1=O (stereo not given) | -155 | -15 | -7 | i | -4 | 14 | 1 | 2
O=S(=O)(NCCN1CCOCC1)c1ccc(Cl)c(Cl)c1 | -5 | -12 | 7 | i | 2 | -3 | 0 | x
COc1cc(CN2CCN(Cc3c[nH]c4ccccc34)CC2CCO)cc(OC)c1 (stereo not given) | 12 | -7 | -1 | i | 5 | 1 | 3 | x
C[C@@H]1CNC(=O)c2c(C(=O)N[C@H](C)c3ccccc3)ncn21 | -61 | -9 | x | x | x | 3 | 3 | x
CC1CCN(S(=O)(=O)c2ccc3c(c2)N(C)C(=O)CC(=O)N3C)CC1 | -110 | 0 | 4 | i | -7 | -2 | 2 | x
